KAT2A inh = qHTS Assay for Inhibitors of GCN5L2. Potency, µM (series often up to 58.9 µM), without a hit: at the highest dose activity change, negative = inhibition, actives largely listed as inhibitors. 0.21% of 390,000 active. GCN5L2 HAT assay, ThioGlo1 CoA-SH fluorescence. Histone acetyltransferase KAT2A (Homo sapiens), Q92830; active = well fitted inhibition curve with a large enough effect; inconclusive = small, poorly fitted or top-dose-only effect, or another doubt; inactive = no such curve, though single readings can be large or run the other way
Target sequence (Q92830 whole entry, looked up): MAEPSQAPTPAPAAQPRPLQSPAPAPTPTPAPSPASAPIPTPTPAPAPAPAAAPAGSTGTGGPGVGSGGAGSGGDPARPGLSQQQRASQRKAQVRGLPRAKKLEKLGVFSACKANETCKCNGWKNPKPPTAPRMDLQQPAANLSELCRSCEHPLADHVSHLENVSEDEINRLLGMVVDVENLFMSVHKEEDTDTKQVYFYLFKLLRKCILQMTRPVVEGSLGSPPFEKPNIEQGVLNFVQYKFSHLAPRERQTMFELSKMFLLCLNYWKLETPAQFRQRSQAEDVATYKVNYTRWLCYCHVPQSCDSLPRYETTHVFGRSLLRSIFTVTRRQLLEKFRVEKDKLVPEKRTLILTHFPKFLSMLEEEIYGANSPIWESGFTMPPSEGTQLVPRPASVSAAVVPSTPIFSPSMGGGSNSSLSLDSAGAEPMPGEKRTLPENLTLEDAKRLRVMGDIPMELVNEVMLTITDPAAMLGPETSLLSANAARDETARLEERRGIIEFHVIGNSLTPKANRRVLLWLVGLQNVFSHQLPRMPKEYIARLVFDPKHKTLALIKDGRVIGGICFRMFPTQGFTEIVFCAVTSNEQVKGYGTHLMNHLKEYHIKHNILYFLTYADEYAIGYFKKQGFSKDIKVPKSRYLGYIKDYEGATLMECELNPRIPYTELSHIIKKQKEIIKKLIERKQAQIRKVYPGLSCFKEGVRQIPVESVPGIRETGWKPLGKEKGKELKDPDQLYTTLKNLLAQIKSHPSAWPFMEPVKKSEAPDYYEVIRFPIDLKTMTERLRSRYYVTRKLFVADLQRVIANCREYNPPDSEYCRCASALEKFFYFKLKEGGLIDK
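Titration-based screen in which CoA formation is detected via maleimide probe ThioGlo1 (50uM) turning fluorescent on thiol reaction; substrates H3(1-25) 75uM and acetyl-CoA 70uM, GCN5L2 20nM, 20 min incubation at room temperature.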
* marks the source's active call; other numbers are inactive results; ? = inconclusive; & = joins results of further samples. % is scaled to controls: 0 for no effect and ±100 for the full control effect; potency is read from the fitted curve at half-maximal effect. These rows are one share of the data, and most or all hits are left out here.

SMILES,KAT2A inh
CN(C)CCNC(=O)C1CCN(S(=O)(=O)c2ccc3ccccc3c2)CC1,-16%
CCCOc1ccc(-c2c(C(=O)N/N=C/c3ccc(C)cc3)nnn2-c2nonc2N)cc1,-13%
Cc1ccccc1N/N=C/c1ccc(C#N)cc1,-8%
Cc1cc(C)n2nc(CNS(=O)(=O)c3c(F)c(F)c(F)c(F)c3F)nc2n1,-10%
CC(=O)c1cc(C#N)c(Oc2ccc(F)cc2)nc1C,-5%
Cc1cc(NS(=O)(=O)Cc2ccccc2)no1,3%
Cc1ccc(-c2noc(-c3cc(C(C)(C)C)nn3Cc3ccccc3)n2)cc1,-4%
O=C(CSCc1ccccc1Cl)N1CCN(c2ccccn2)CC1,-11%
COC(=O)[C@H](CC(C)C)NC(=O)Nc1ccccc1F,-18%
COc1ccc(C2=NOC(C(=O)NCc3cccs3)C2)cc1OC (centres undefined),2%
CCn1cc(C(=O)NCCC2=CCCCC2)c(=O)c2cc(S(=O)(=O)N(C)C)ccc21,-2%
CCN(Cc1ccccc1)C(=O)COC(=O)c1cc(=O)[nH]c2ccccc12,-9%
COCC(=O)n1nc(-c2ccccc2)nc1NCc1ccccc1,-11%
CC(C)CC(=O)c1c[nH]c(C(=O)NCc2cccs2)c1,0%
CCCC(C)NC(=O)c1ccc2[nH]c3c(c2c1)CC(C)CC3 (centres undefined),-5%
Cc1ccc(OCCN(C)C(=O)C2CCC(=O)N(Cc3ccccc3F)C2)cc1 (centres undefined),-7%
CCN(CC)S(=O)(=O)c1ccc(N2CC(C(=O)NCCC3=CCCCC3)CC2=O)cc1 (centres undefined),-2%
O=C(CSc1nnc(CN2CCOCC2)n1-c1ccccc1)N1CCc2ccccc21,-13%
Cc1cc(C(=O)OCC(=O)N(CC(C)C)c2c(N)n(Cc3ccccc3)c(=O)[nH]c2=O)c(C)o1,5%
COc1ccc(CCNC(=O)CN2C(=O)NC3(CCOc4ccccc43)C2=O)cc1 (centres undefined),-10%
CN(C(=O)COC(=O)C12CC3CC(CC(Cl)(C3)C1)C2)c1ccccc1,-1%
CCC1(C)Cc2c(sc3nc(NC)n(C)c(=O)c23)CO1 (centres undefined),-4%
O=C(C1CC(=O)N(c2ccc(F)cc2)C1)N1CCN(c2ccccc2)CC1 (centres undefined),-10%
O=C(COC(=O)c1ccc2c(c1)OCCO2)NC1CCCCC1,?
COC(=O)CCN(C(=O)c1cc(OC)c(OC)c(OC)c1)c1ccccn1,-2%
O=c1cc(N2CCOCC2)[nH]c(=O)n1-c1ccc(Br)cc1,-5%
CN(C)c1ccc(C(CC(=O)O)NC(=O)c2ccc(Cl)cc2)cc1 (centres undefined),-5%
COc1ccc(C2c3ccc(O)cc3Oc3ncn(Cc4ccccc4)c(=N)c32)cc1OC (centres undefined),-6%
CCOc1cccc(CNCCNC(=O)c2nonc2N)c1,-5%&4%
O=[N+]([O-])c1ccc(OCc2nnc(-c3ccccc3)o2)cc1,-4%
CCN(CC)S(=O)(=O)c1ccc(N2CCOCC2)c(NC(=O)c2cc(Cl)c3c(c2)OCO3)c1,-4%
O=C(N/N=C/c1ccncc1)c1nn(Cc2ccccc2)c(=O)c2ccccc12,-4%
Cc1ccc(-c2nc(N)n(S(C)(=O)=O)n2)cc1,-2%
Cc1ccc(C2C(C(=O)c3sc(C)nc3C)=C(O)C(=O)N2CCN(C)C)o1 (centres undefined),-22%
CSCC[C@H](NC(=O)Nc1ccc(Oc2ccccc2)cc1)C(=O)O,-2%
COc1ccc(CCNC(=O)Cn2cc(C(=O)c3ccc(Cl)cc3)c(=O)c3ccc(C)nc32)cc1OC,2%
Cc1cccc(NS(=O)(=O)c2cccc(C(=O)NNC(=O)c3ccccc3O)c2)c1,-4%
COc1ccc(C(=O)NCCc2nnc3ccc(SCC(=O)N4CCCC4)nn23)cc1,-3%
CC(C)(C)OC(=O)NCCCCCNC(=O)c1[nH]cnc1C(=O)N[C@@H](Cc1ccccc1)C(=O)OC(C)(C)C,-12%
CCOC(=O)C(C)Sc1ncc(-c2ccccc2)cn1 (centres undefined),-3%
COc1ccc(-n2nc(C(=O)NCC(=O)N3CCN(C)CC3)c3ccccc3c2=O)cc1OC,-5%
Cc1ccc(SCCC(=O)N2CCOCC2)cc1,-14%
O=C(O)Cn1cnc2c(oc3ccccc32)c1=O,2%
Cc1ccc(F)c([C@H]2C3C=CCC(c4ccccc4)C3C(=O)N2Cc2ccccc2)c1 (some centres undefined),-15%
CCCCNC(=S)NNC(=O)c1csc2c1CCC(C)C2 (centres undefined),-4%
Cc1ccc2nc(Cl)c3cc(C(=O)NC4CCC(C)CC4)sc3c2c1 (centres undefined),-5%
Cn1c(=O)c2c(nc(-n3ccnc3)n2Cc2ccc([N+](=O)[O-])cc2)n(C)c1=O,8%
Nc1nonc1-c1noc(N2CCCCC2)n1,-2%
Cc1ccc(S(=O)(=O)N2CCc3cc(C(=O)Nc4c(F)cccc4F)ccc32)cc1,-7%
CC(=O)N(CC(=O)O)c1ccccc1,-1%
Cc1ccc2nc(-c3sc4nc(C)cc(C)c4c3N)[nH]c2c1,-1%
Cc1cc(C)cc(N(CC(=O)NC2CCCC2)C(=O)CCC(=O)Nc2cc(C)on2)c1,-5%
CCn1c(=O)cc(C(=O)OC)sc1=Nc1ccc(F)c(F)c1,-21%
CCN(CC)CCCNC(=O)C1c2ccccc2C(=O)N1Cc1ccc(C)cc1 (centres undefined),-3%
CN1CCN(/N=C2/C(=O)Nc3ccc([N+](=O)[O-])cc32)CC1,-1%
Cc1cc(C)n2nc(SCC(=O)c3ccccc3)nc2n1,-3%
O=C(CNC(=O)c1ccc(Cl)cc1)OCC(=O)c1ccccc1,-3%
CCN(CC)c1ccc(CNc2ccc(Br)cn2)cc1,-4%
C[C@H](NC(=O)OCc1ccccc1)c1nnc([C@H](Cc2ccccc2)NC(=O)OC(C)(C)C)o1,-10%
COC(=O)[C@H](CCSC)NC(=O)NCc1cccs1,2%

Two compounds picked at random from those above:
SMILES,KAT2A inh
Cc1ccc(SCCC(=O)N2CCOCC2)cc1,-14%
Cc1cccc(NS(=O)(=O)c2cccc(C(=O)NNC(=O)c3ccccc3O)c2)c1,-4%

Remaining list, next part:
Compound	KAT2A inh
COc1ccc(CC(=O)Nc2ccc(-c3noc(-c4cccc(OC)c4)n3)cc2)cc1	-13%
O=C(Nc1nnc(-c2ccccc2)o1)NC1CCCCC1	-6%
CCCOc1ccc(CNCCCOCC)cc1OC	0%
COc1ccc(CNC(=O)CSc2nc(-c3ccc(OC)c(OC)c3)cc(C(F)(F)F)n2)cc1	-3%
COc1ccc(C(=O)NC2CCCCC2)cc1OC1CCN(C(C)C)CC1	-4%
CCOC(=O)NCc1ccc(Cl)c(Cl)c1	2%
CCCCCc1nc2sc3c(c2c(=O)n1NC(=O)c1ccc([N+](=O)[O-])cc1)CC(C)(C)OC3	-8%
COc1ccc(C(=O)N2CCC(C(=O)Nc3cccc(C)c3)CC2)cc1OC	-1%
O=C(NCCSc1ccc(Br)cc1)c1ccc2nc[nH]c2c1	-5%
CCOCCCNC(=O)CN1C(=O)c2cccc3cccc1c23	-3%

Grouped by structure: those above with a furan ring, fused or not
Compound	KAT2A inh
Cc1cc(C(=O)OCC(=O)N(CC(C)C)c2c(N)n(Cc3ccccc3)c(=O)[nH]c2=O)c(C)o1	5%
Cc1ccc(C2C(C(=O)c3sc(C)nc3C)=C(O)C(=O)N2CCN(C)C)o1 (centres undefined)	-22%
O=C(O)Cn1cnc2c(oc3ccccc32)c1=O	2%

(more compounds)
Compound	KAT2A inh
COc1c(C)cc(S(=O)(=O)NC2CC(C)(C)NC(C)(C)C2)c(C)c1C	0%
O=S(=O)(c1cccs1)N1CCN(c2ccccn2)CC1	1%
S=C(Nc1ccccc1Cl)N(CCCN1CCOCC1)Cc1ccccn1	2%
Cc1cc(C)cc(NC(=O)NCC(O)COc2ccc([N+](=O)[O-])cc2)c1 (centres undefined)	-7%
CCN1CCN(CCCNc2ncnc3nc[nH]c23)CC1	-14%
O=C(Nc1ccc(N2CCOCC2)cc1)c1cc2ccccc2o1	-2%
COC(=O)c1nc2cc3c(cc2c(C)c1C(=O)OC)OCO3	-5%
CCSc1nnc(NC(=O)NC(C)(C(F)(F)F)C(F)(F)F)s1	-11%
CC(=O)c1sc2nc(=O)c(C)nn2c1C	-12%
Cc1cc(C)c(S(=O)(=O)Cc2ccc(Cl)cc2)c(=O)[nH]1	-15%
Cc1cccc(-n2c(C)nc3sccc3c2=O)c1	2%
COc1ccc2c(c1)c1c(c(=O)n(Cc3ccccc3)c(=O)n1CC(=O)Nc1ccccc1F)n2C	2%
COC(=O)c1cc2sccc2n1CC(=O)N(C)c1ccccc1	7%
Cc1ccc2nc(/C(C#N)=C\c3ccc(Oc4ccc([N+](=O)[O-])cn4)cc3)[nH]c2c1	-20%
CCCn1c(SCC(=O)c2c[nH]c3ccccc23)nnc1-c1ccncc1	-4%
CCc1ccc(OCC(O)CN2CCN(c3ccccc3)CC2)cc1 (centres undefined)	-3%
O=C(CCNC(=O)c1ccco1)NCCc1c[nH]c2ccccc12	-2%
CC(=O)Nc1ccc(NC(=O)C(C)OC(=O)CSc2ccc(Br)cc2C)cc1 (centres undefined)	-3%
Cc1ccc(-n2c(N)c(C(=O)N3CCOCC3)sc2=S)c(C)c1	-12%
CCOc1ccccc1NC(=O)Cn1c(=O)ccc2cc(S(=O)(=O)N3CCCC3)ccc21	1%

Part of the list above, as labelled records.
> CCc1ccc(OCC(O)CN2CCN(c3ccccc3)CC2)cc1 (centres undefined)
  KAT2A inh = -3%
> COC(=O)c1cc2sccc2n1CC(=O)N(C)c1ccccc1
  KAT2A inh = 7%
> CCCn1c(SCC(=O)c2c[nH]c3ccccc23)nnc1-c1ccncc1
  KAT2A inh = -4%

Next section.
Compound	KAT2A inh
O=C(NCCCO)c1ccc2[nH]c3ccccc3c2c1	-2%
COc1cc(-c2noc(CCCC(=O)Nc3ccc(C(N)=O)cc3)n2)cc(OC)c1OC	1%
O=C(c1cccc(S(=O)(=O)N2CCc3ccccc32)c1)N1CCN(CCO)CC1	-3%
O=C(NCC(c1cccs1)N1CCOCC1)c1ccccc1NS(=O)(=O)c1cccc([N+](=O)[O-])c1 (centres undefined)	3%
CC(C)CCNC(=O)C1CCN(S(=O)(=O)c2ccc(-n3cnnn3)cc2)CC1	0%
COc1ccc(N2CCN(c3ncnc4c3cnn4C)CC2)cc1	0%
CCN(CC)S(=O)(=O)c1ccc(C(=O)N=c2sc3cccc(OC)c3n2C)cc1	-7%
O=C(NNc1ccc(Cl)cc1)c1cccs1	-6%
COC(=O)C1=C(C)NC2=C(C(=O)CCC2)C1c1cn(Cc2ccc(Cl)cc2Cl)nc1-c1ccccc1 (centres undefined)	-27%
CC(C)C(=O)NCc1cc(-c2ccccc2)no1	-16%
C=CCn1c(N)cc(=O)nc1SCC(=O)Nc1ccc(C(=O)OCC)cc1	0%
Cc1csc(C(=O)O)c1NC(=O)c1cccc([N+](=O)[O-])c1	0%
COc1ccc(CCNC(=O)c2c(C)nn(-c3ccccc3)c2Cl)cc1OC	-2%
O=C(c1ccc([N+](=O)[O-])cc1)N1CCN=C1SCc1ccccc1	-5%
O=C(c1ccc(CS(=O)(=O)c2ccccc2)o1)N1CCN(c2ccccc2)CC1	?
Cc1oc(-c2ccc(Cl)cc2)nc1CN1CCCC(C(=O)NCc2ccccn2)C1 (centres undefined)	-8%
C[C@H](CO)N1C[C@H](C)[C@@H](CN(C)S(=O)(=O)c2cccs2)Oc2ccc(NC(=O)Cn3cnnn3)cc2C1=O	-3%
COc1ccc(C2=NC3(CCCCCC3)N(CC(=O)Nc3ccc(C)c(C)c3)C2=O)cc1	1%
CCOC(=O)CSc1nc2cc(OC)c(OC)cc2c2nc(-c3ccccc3)nn12	2%
Cc1nnc(SCC(=O)N2CCC(C(=O)Nc3nccs3)CC2)n1Cc1ccccc1	-8%
COc1ccc(-c2cn[nH]c2N)cc1	-3%
CCOC(=O)C1=C(COC(=O)C2(C)CC2(Cl)Cl)NC(=O)NC1c1ccccc1 (centres undefined)	-14%
CC(=O)Nc1sc(/C(C#N)=C\c2cccc(Cl)c2)nc1-c1ccc(C)cc1	-19%
CN1CCN(C(=O)c2cnn(-c3ccccc3)c2NC(=O)c2cccs2)CC1	-7%
CCOc1c(Cl)cc(Cl)cc1CNCCNCCO	-1%
Nc1c(N(Cc2ccco2)C(=O)c2cccc(Cl)c2)c(=O)[nH]c(=O)n1Cc1ccccc1	-1%
CCC[n+]1cn(/C(C(=S)Nc2cccc(Cl)c2C)=C(/[O-])c2ccc(OC)c(OC)c2)c2ccccc21	-4%
COc1ccc(NC(=O)C2CCCN(S(=O)(=O)c3cccc4nonc34)C2)c(OC)c1 (centres undefined)	-3%
CC(C)C(C)(C#N)NC(=O)CSc1nnc(C(F)(F)F)n1C (centres undefined)	4%
CCc1ccc2[nH]c(=O)c(C(c3nnnn3Cc3ccccc3)N3CCOCC3)cc2c1 (centres undefined)	-4%
O=C(O)CCS(=O)(=O)Cc1cccc(Cl)c1	0%
Cc1cc(C)c2c(=O)cc(C(=O)Nc3sc4c(c3C(=O)NCc3cccnc3)CCCC4)oc2c1	-3%
O=C(c1ccccc1)c1nnc(-c2ccncc2)o1	-3%

Ordered by molar mass (smallest number first): some entries from above
Compound	KAT2A inh
O=C(C1CC(=O)N(c2ccc(F)cc2)C1)N1CCN(c2ccccc2)CC1 (centres undefined)	-10%
O=C(CSc1nnc(CN2CCOCC2)n1-c1ccccc1)N1CCc2ccccc21	-13%
CCCCCc1nc2sc3c(c2c(=O)n1NC(=O)c1ccc([N+](=O)[O-])cc1)CC(C)(C)OC3	-8%

Compound activity from PubChem BioAssay.
